# Assay outcomes: PubChem, several laboratories
# Sa RN4220 lethal: kills Staphylococcus aureus RN4220. S. aureus RN4220 growth, OD600, 16 h. inhibition, % (test concentration not listed). hit rate 0.33% among 330,000. AID 1259311;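 active = z-score of -3 or lower and OD600 up to 0.18 on both plates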;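 note: plate controls were untreated cells for no effect and reference antibiotic for full effect; stock transfer was 100 nL into about 80 µL; one replicate is shown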
# Bead autofluor: compound fluorescence in toxin protease inhibitor counterscreen; compound autofluorescence counterscreen, microsphere flow cytometry; hits give high values; fluorescence intensity (no concentration beside the values); hit rate 3.1% among 360,000; AID 624483;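 active = at least 3 SD above the mean of all compounds, about 16000 in these data; inconclusive = too few beads counted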;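 note: 100 nL of 1 mM stock went into each well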
# Mtb hypoxia rep: Mtb hypoxia fluorescent reporter inhibition; hit rate 0.1% among 300,000; M. tuberculosis hypoxia-regulated fluorescent reporter, fluorescence; AID 1159583; fluorescence inhibition, % (concentration not given with the values);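 active = 35 to 45% if threefold the growth effect, above 45% if 1.5-fold the growth effect; inactive = the rest, general growth blockers included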;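 note: wells of about 50 µL received 100 nL stock; 0% = vehicle wells and 100% = reference inhibitor wells; whole bacteria with a GFP reporter of the hypoxia response; strong numbers were not always called active; many hits fall short of the cut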
# PrP 5UTR inh: suppresses PrP 5' UTR mRNA reporter expression; hit rate 0.35% among 340,000; inhibition, % (no concentration beside the values); cell-based PrP 5' UTR mRNA reporter, plate reader;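 active = every replicate at 50% or more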;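 note: 0 = median of the neutral control wells; tested in H4 reporter cells; numbers are from one replicate; inactives centre near -14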
# ugtP null kill: growth inhibition of S. aureus ugtP deletion strain; S. aureus RN4220 ugtP deletion, OD600 growth, 16 h; some inactives read as strong as hits; growth inhibition, % (no concentration beside the values); hit rate 0.54% among 330,000; AID 1259309;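 active = z-score under -3 and OD600 up to 0.15 on both plates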;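 note: plate controls were untreated wells for no effect and antibiotic for full effect; wells of about 80 µL received 100 nL stock; the first replicate is given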
# BJeLR viability: BJeLR cell viability loss; inhibition, % (no concentration beside the values); BJeLR (HRASV12) viability, CellTiter-Glo ATP luminescence, 48 h; reference of the scale not given here; AID 1554; hit rate 0.17% among 300,000;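 active = replicate mean above 50%; inconclusive = above 50% but judged a plate artefact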;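 note: 50 nL library stock added to about 25 µL; numbers are from one replicate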
# Mtb hypoxia rep growth: recorded beside Mtb hypoxia rep, whose call it bears; growth inhibition, %; measured here: M. tuberculosis growth (absorbance);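 0% = vehicle and 100% = reference antibiotic; read after six days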
# * hit, by the source's call; ? = inconclusive; . = no result given. An unsorted share of the library, and some 3.9% of all compounds hit somewhere here.
SMILES,Sa RN4220 lethal,Bead autofluor,Mtb hypoxia rep,Mtb hypoxia rep growth,PrP 5UTR inh,ugtP null kill,BJeLR viability
CC1CCCCC1NC(=O)c1cn(C)c2ccc(S(=O)(=O)N3CCOCC3)cc2c1=O (stereo unspecified),0.7,6151,6.3,1.0,-26.0,6.6,2.3
O=C(CN1CCN(S(=O)(=O)c2cccs2)CC1)NCC1CCCCC1,0.2,2837,3.1,3.4,-12.7,5.0,.
COc1ccc(OCC(=O)Nc2ccccc2OC)cc1,6.3,8411,7.6,-2.0,-4.4,7.4,0.0
CCCCn1c(=O)c(CCC(=O)OCC(=O)Nc2cc(Cl)ccc2OC)nc2ccccc21,2.3,2197,12.5,6.5,-7.3,-0.2,6.6
CC(=O)OCCN1C(=O)c2cccnc2C1=O,7.3,2837,.,.,-102.7,3.1,5.3
CC(C)C(NS(=O)(=O)c1ccc2c(c1)oc(=O)n2C)C(=O)N1CCN(C2CCCCC2)CC1 (stereo unspecified),3.2,5434,.,.,-13.5,5.4,6.2
CCOC(=O)N/N=C\c1ccc(C)s1,.,2629,.,.,-22.9,.,-1.1
C=CCNC(=O)CN1C(=O)NC(C)(c2ccc(OC)cc2)C1=O (stereo unspecified),2.7,4146,14.9,-0.3,-24.2,-5.5,-5.2
COC(=O)NCN1C(=O)C2C3C=CC(C3)C2C1=O (stereo unspecified),7.6,4330,15.6,-0.2,-14.3,8.9,-2.9
CN1CCN(NC(=O)C23CC4CC(CC(C4)C2)C3)CC1,2.4,2287,8.8,9.2,-4.6,3.5,0.7
COc1cccc(NC(=S)N/N=C2/CCCCc3ccccc32)c1,.,2438,.,.,-45.7,.,0.2
CN(C(=O)c1ccc(=O)[nH]c1)C1(C(=O)NC2CCCCC2)CCCCC1,3.3,4999,.,.,-19.0,7.7,12.2
CCCCn1c(-c2csc3c2CCC(C)C3)n[nH]c1=S (stereo unspecified),5.5,11330,6.4,15.2,-16.1,-15.2,-14.9
CCOC(=O)C1CCCN(C(=O)CSc2nccn2C)C1 (stereo unspecified),-8.1,2841,12.8,4.3,-32.3,-1.7,4.2
O=C(CSc1nnc(-c2cccnc2)n1Cc1ccccc1)N1CCOCC1,2.7,24649*,12.3,2.4,-20.1,5.4,11.8
O=C(CCCCl)Nc1c2c(nn1-c1ccccc1)CSC2,2.5,6456,1.8,-1.8,-11.4,0.3,-7.5
CCC1(c2ccccc2)NC(=O)N(CC(=O)Nc2cccc(C#N)c2)C1=O (stereo unspecified),0.3,7998,-5.2,-3.5,-3.7,-3.7,-4.5
CCC1(c2ccc(Cl)cc2)NC(=O)N(CC(=O)NC2CCCC(C)C2C)C1=O (stereo unspecified),1.6,?,5.8,8.3,-13.6,8.5,.
Cn1c(SCC(=O)Nc2cccc(O)c2)nnc1-c1ccc(S(=O)(=O)N2CCOCC2)cc1,6.0,6800,3.6,14.0,-34.9,5.5,-1.6
O=C(NCC(=O)N(Cc1cccs1)C(C(=O)NC1CCCCC1)c1ccco1)c1ccco1 (stereo unspecified),1.6,3083,.,.,-11.0,8.2,1.9
CCc1ccc(NC(=O)COC(=O)c2ccc(Cl)c(S(=O)(=O)N3CCCCCC3)c2)cc1,0.5,2062,9.6,8.8,-4.7,-5.4,5.9
C=CCc1c(C)[nH]c2ccc(C)cc2c1=O,-0.5,3760,.,.,-47.8,6.5,11.9
COc1ccccc1CCN=C(N)NS(=O)(=O)c1ccccc1F,6.3,4836,10.9,6.8,-12.7,2.2,2.1
CSc1ncccc1C(=O)Nc1nc2c(C)cccc2s1,1.4,2000,-2.8,0.0,0.6,-4.6,-5.3
COC(=O)[C@@]1(Cc2ccccc2)[C@H]2C(=O)N(C)C(=O)[C@H]2[C@H]2CN=C(SCC3CC3)N21,2.3,3789,-1.4,16.3,46.5,-1.0,.
# Continued.
SMILES,Sa RN4220 lethal,Bead autofluor,Mtb hypoxia rep,Mtb hypoxia rep growth,PrP 5UTR inh,ugtP null kill,BJeLR viability
O=C(NCCNC(=O)c1ccccn1)c1ccc(F)cc1,0.0,5883,16.9,11.1,-16.9,7.0,7.8
CCN(CC)c1ccc(C=CC(=O)C2C(=O)C=C(C)OC2=O)cc1 (stereo unspecified),13.8,.,0.3,14.6,.,4.2,.
Nc1ccc(C(=O)NN=Cc2c[nH]c3ccccc23)cc1,3.7,.,13.5,1.6,.,4.3,.
Cc1ccc(S(=O)(=O)N2CCC[C@H]2C(=O)Nc2ccccc2Cl)cc1,3.7,3043,1.5,0.6,-21.0,1.2,.
O=C(Nc1ncnc2sc3c(c12)CCCCC3)c1ccccc1,4.4,4282,18.9,7.4,-19.1,-2.1,7.3
CCCOc1ccc(-c2csc3nc[nH]c(=O)c23)cc1,5.5,.,7.3,4.0,-31.8,11.6,-17.8
Cc1cccc(C(=O)Nc2ccccc2SCC(=O)Nc2ccc(C)c(Cl)c2)c1,6.8,2502,-10.3,0.9,-30.2,-0.7,2.7
Cc1ccc(C)c(NC(=O)CNC(=O)N2CC(=O)Nc3ccccc32)c1,8.0,5243,5.2,1.5,-9.8,17.5,-0.7
CCCCn1c(N)c(N(CCOC)C(=O)c2ccc(N3CCCC3)c([N+](=O)[O-])c2)c(=O)[nH]c1=O,0.8,.,8.2,3.4,-18.0,-0.3,-11.7
CCOc1ccc(NC(=S)c2ccncc2)cc1,3.2,2432,2.1,4.7,-17.9,4.3,-8.9
CCCCCCC(=O)Nc1ccc(C(=O)NN=Cc2cccnc2)cc1,-6.4,.,-0.3,6.0,.,3.5,.
N#CC1(c2ccccc2)CCC(=NNS(=O)(=O)c2ccccc2)CC1 (stereo unspecified),-2.7,4186,-18.0,-5.4,-13.9,-8.0,.
O=C(COC(=O)c1ccc(Cl)c(S(=O)(=O)N2CCCC2)c1)NCc1cccs1,-1.8,3811,1.3,2.0,-19.7,-2.5,-1.6
CCC(C)(C)C1CCC(=NNC(=O)c2ccc(Br)o2)CC1 (stereo unspecified),3.2,2516,4.2,0.4,-21.1,3.5,-7.0
CCCCOC(=O)Nc1ccc(C)c(Cl)c1,4.9,2956,.,.,-58.8,4.8,-10.0
O=C(c1cc(F)ccc1F)C1CCCN(C(=O)CSc2ccccn2)C1 (stereo unspecified),6.1,2456,7.6,3.7,-26.6,5.0,-4.0
O=C1CCC=CCC(CC(=O)N(CCO)Cc2ccccc2)C(=O)NCCO1 (stereo unspecified),6.3,.,13.9,11.9,.,6.1,.
CCN(CC)C(=O)c1ccc(NC(=O)CSc2nnnn2-c2cc(OC)ccc2OC)cc1,3.0,10605,4.2,-0.1,-24.8,10.7,-4.5
Cc1ccc(NC(=O)CC2SC(=O)N(c3ccccc3)C2=O)cc1 (stereo unspecified),9.8,4564,0.1,11.0,-31.4,7.0,7.0
Cc1cc(C(=O)N/N=C/c2cc([N+](=O)[O-])cc(C)c2O)n[nH]1,.,2552,.,.,-7.0,.,-7.3
Cc1cn2nc(N)c3ccccc3c2n1,3.7,3087,4.5,11.0,5.8,3.8,.
CCC(CC)C(=O)Nc1c(C)n(C)n(-c2ccccc2)c1=O,1.6,3375,.,.,-4.4,19.9,9.4
CNC(=S)NNC(=O)Cc1ccc(OC)c(OC)c1,6.6,2476,9.2,0.7,1.8,6.4,-6.9
Cc1ccc(C(=O)N2CCCc3ccccc32)c(F)c1F,6.7,3804,5.1,1.0,-22.5,10.9,-8.6
COc1ccccc1C(=O)Nc1ccc(-c2nnc(SCC(=O)O)n2C)cc1,0.2,9535,-5.2,-14.8,5.0,3.2,0.9
# (listing goes on)
SMILES,Sa RN4220 lethal,Bead autofluor,Mtb hypoxia rep,Mtb hypoxia rep growth,PrP 5UTR inh,ugtP null kill,BJeLR viability
COC(=O)[C@@H]1C(c2ccccc2)(c2ccccc2)[C@@]1(C)C(=O)OC,7.4,2104,1.6,4.3,-27.0,12.4,3.6
Cc1csc2nc3cc(C(N)=O)ccc3c(=O)n12,7.7,4352,5.3,-1.1,-37.6,-1.9,-1.5
Cc1ccc(NC(=O)COC(=O)C2CCC(=O)N2)c(S(=O)(=O)N2CCOCC2)c1 (stereo unspecified),3.0,4243,2.1,4.3,12.8,11.2,-0.3
Cc1ccc(CSc2nc3ccccc3cc2C=O)cc1,.,4735,.,.,-11.9,.,43.6
Cc1cc(NC(=O)/C=C/c2ccco2)ccc1NC(=O)c1ccccc1,2.2,4004,3.5,-4.7,-39.4,5.1,-1.7
O=C(CCSCc1ccc(Cl)cc1)NCCC1=CCCCC1,1.5,1923,8.6,10.0,-17.2,5.0,0.3
COc1ccc(/C=N/NC(=O)c2ccc3c(c2)OCO3)c(C(=O)O)c1OC,.,3314,.,.,-1.5,.,-2.9
CC(=O)Nc1ccc(NC(=O)C/C(C)=N/NC(=O)C(=O)Nc2ccc(C)c(Cl)c2)cc1,.,4293,.,.,-31.1,.,0.4
Cc1ccc(CNC(=O)C2C3C=CC4(CN(Cc5cccnc5)C(=O)C24)O3)cc1 (stereo unspecified),-0.5,4676,.,.,-11.3,-2.1,5.7
CC1=NN(C(=O)c2ccc(Br)cc2)C(O)(c2ccccc2)C1 (stereo unspecified),1.4,2202,12.0,4.6,-17.2,13.2,2.7
Cc1nc2ccccc2c(=O)n1NC(=O)C1CCC(C(C)(C)C)CC1 (stereo unspecified),4.5,3467,4.5,-3.4,-13.7,-6.2,0.1
COc1ccc(C(=O)CSc2nnc(-c3ccc(S(=O)(=O)N4CCOCC4)cc3)o2)cc1,2.3,20449*,11.9,6.0,-30.3,-14.3,-3.9
O=C(C[C@H]1C[C@H](C(=O)N2CCOCC2)[C@@]2(CCC3CCCC3)c3[nH]c4ccc(Cl)cc4c3CCN2C1=O)NCc1ccco1,-6.6,3040,4.8,6.6,-10.5,-5.3,.
O=C1C(Nc2ccccc2)=C/C(=N/S(=O)(=O)c2cccs2)c2ccccc21,.,7579,.,.,-73.2,.,-12.7
CCn1c(=O)c(C(=O)NNC(=O)c2ccccc2)c(O)c2ccccc21,11.0,6069,6.3,0.2,-11.4,-6.1,-7.0
CCC(C(=O)O/N=C(\N)c1ccc(Cl)cc1)c1ccccc1 (stereo unspecified),4.1,3251,.,.,-20.7,17.6,4.1
O=c1c2ccccc2[nH]c(=S)n1CCCN1CCC(Cc2ccccc2)CC1,1.8,4678,13.3,9.6,-11.5,1.4,-6.6
O=C1CN(C(=O)c2ccccc2F)C(c2ccccc2)c2cc(Cl)ccc2N1 (stereo unspecified),4.5,3952,-14.6,0.6,-26.5,5.4,-5.5
O=C(O)CN1CCN(Cc2cccc(Cl)c2)C1=O,1.1,3233,4.3,-3.5,-13.1,0.9,0.8
Cc1ccc2cc3c(NC(=O)CC(C)C)nn(C)c3nc2c1,-0.9,2577,.,.,15.9,-10.7,-1.4
CCc1nc(SCC(=O)Nc2c(C)nn(C)c2C)c2cnn(-c3ccccc3)c2n1,6.8,.,4.2,5.9,.,4.0,7.3
O=C(NCCCN1CCOCC1)c1cc(-c2ccc(Cl)c(Cl)c2)on1,-0.2,5817,4.0,2.1,-9.0,9.8,-6.8
CCOC(=O)c1[nH]c2ccc(F)cc2c1NC(=O)Nc1ccccc1OC,-0.3,2462,.,.,-20.3,-12.8,-4.6
CC(C)Oc1ccc(C(=O)Nc2cc(=O)n(C)c(=O)n2C)cc1,-1.0,5129,-1.4,10.4,0.9,-2.6,7.1
CS(=O)(=O)c1ccccc1C(=O)NC1CCCc2ccccc21 (stereo unspecified),2.4,4544,-0.9,0.2,-20.5,-2.2,1.8
O=[N+]([O-])c1cc(Cl)ccc1N1CCCC1,11.3,2451,3.6,-0.6,-11.4,2.0,3.7

# Whole records, quoted from the list:
# Listed for `Cc1ccc(NC(=O)COC(=O)C2CCC(=O)N2)c(S(=O)(=O)N2CCOCC2)c1` (stereo unspecified) : Sa RN4220 lethal: 3.0; Bead autofluor: 4243; Mtb hypoxia rep: 2.1; Mtb hypoxia rep growth: 4.3; PrP 5UTR inh: 12.8; ugtP null kill: 11.2; BJeLR viability: -0.3
# Listed for `CCn1c(=O)c(C(=O)NNC(=O)c2ccccc2)c(O)c2ccccc21` : Sa RN4220 lethal: 11.0; Bead autofluor: 6069; Mtb hypoxia rep: 6.3; Mtb hypoxia rep growth: 0.2; PrP 5UTR inh: -11.4; ugtP null kill: -6.1; BJeLR viability: -7.0
